VEEV TC-83 Vero = inhibitors of VEEV TC-83 cytopathic effect, confirmation, Vero cells (AID 588727); Vero cells, VEEV TC-83 cytopathic effect inhibition; higher % means a stronger effect; inhibition, % at 20 µM; hits with a dose series show IC50 in µM; hit rate 0.13% among 350,000; in the data active = a potency from the dose series; inconclusive = inhibition mostly from about 14% at the one dose, without a potency; inactive = the rest, 99 in 100 with inhibition below about 12%; note: strong numbers were not always called active
M. tuberculosis HTS = M. tuberculosis growth inhibition, HTS (AID 449762). M. tuberculosis H37Rv growth inhibition, 7H9 media; higher % means a stronger effect. inhibition, % at 25 µM; hits with a dose series show IC50 in µM. hit rate 0.59% among 330,000; in the data active = a potency from the dose series; inconclusive = inhibition above about 70% without an active follow-up result;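 note: bacterial growth assessed after seven days of incubation; strong numbers were not always called active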
tuberculosis growth = growth inhibition of non-replicating M. tuberculosis (AID 488890). Mycobacterium tuberculosis non-replicating, growth inhibition; higher % means a stronger effect. one-dose inhibition, % at 25 µM; IC50 in µM for titrated hits. hit rate 0.39% among 320,000; in the data active = a potency from the dose series; inconclusive = inhibition mostly from about 82% at the one dose, without a potency; inactive = the rest, 99 in 100 with inhibition below about 76%;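 note: plate controls were DMSO cells for no effect and high antibiotic wells for full effect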
* hit, by the source's call; i = inactive; ? = inconclusive; · = not tested or not shown; & = joins results of further samples.

| compound | M. tuberculosis HTS | VEEV TC-83 Vero | tuberculosis growth |
| --- | --- | --- | --- |
| C[n+]1ccc(-c2cc[n+](C)cc2)cc1 | -5% | i | -13% |
| Oc1ccc(/C=N/Nc2ccc(Cl)nn2)c(O)c1O | -6% | i | -8% |
| Cc1cc(C)nc(/N=C(\N)Nc2ccc(SC(F)F)cc2)n1 | -1% | 7.3% | 14% |
| S=C1NCN(C2CCCCC2)CN1c1ccccc1 | -3% | 3.1% | 27% |
| O=C(/C=C/c1ccc(O)c(O)c1)O[C@@H]1C[C@](O)(C(=O)O)C[C@@H](O)[C@H]1O | -1%&-2% | 2.1%&0.4% | 15%&-2% |
| CN1C(C(=O)Nc2ccccn2)=C(O)c2sccc2S1(=O)=O | 4% | 2.1% | 8% |
| CCSC1=C(C#N)C(=O)n2c1cc1c2CCCC1 | -7% | i | 24% |
| Cc1c(C(=O)Nc2ccncc2)sc2nc(-c3ccc(F)cc3)cn12 | -4% | 8.9% | 17% |

Quoted at random: two entries already listed, in no set order.
| compound | M. tuberculosis HTS | VEEV TC-83 Vero | tuberculosis growth |
| --- | --- | --- | --- |
| Cc1cc(C)nc(/N=C(\N)Nc2ccc(SC(F)F)cc2)n1 | -1% | 7.3% | 14% |
| CCSC1=C(C#N)C(=O)n2c1cc1c2CCCC1 | -7% | i | 24% |

Next section
| compound | M. tuberculosis HTS | VEEV TC-83 Vero | tuberculosis growth |
| --- | --- | --- | --- |
| COc1ccc(Nc2nc(Nc3ccc(OC)cc3OC)nc(N3CCN(C)CC3)n2)c(OC)c1 | ? | 7.9% | 48% |
| O=C(O)CC(O)C(=O)O (stereo not given) | · | 2.1% | -19% |
| O=C(N/N=C/c1ccc([N+](=O)[O-])o1)C1CC1 | ? | 2.7% | 68% |
| O=C(Nc1nnc(C2CC2)s1)c1ccccn1 | ? | 4.2% | ? |
| Cc1[nH]n(-c2ccccc2)c(=O)c1C(c1cccc([N+](=O)[O-])c1O)c1c(C)[nH]n(-c2ccccc2)c1=O | -4% | 11% | -7% |
| CC(=O)Oc1c(C)c(C)c2c(c1C)CCC(C)(CCCC(C)CCCC(C)CCCC(C)C)O2 (stereo not given) | 0% | 0.1% | 3% |
| C#CCOCCOCCOCCNc1nc(N2CCN(C(=O)CCCCCCCCCCNC(=O)[C@H]([C@@H](C)CC)n3cc(CCCCN=C(N)N)nn3)CC2)nc(N2CCN(C(=O)CCCCCCCCCCNC(=O)[C@@H]([C@H](C)O)n3cc(C)nn3)CC2)n1 | -1% | 6.5% | 78% |
| c1cnc2c(c1)ccc1cccnc12 | ? | 12%&11% | ? |

| compound | M. tuberculosis HTS | VEEV TC-83 Vero | tuberculosis growth |
| --- | --- | --- | --- |
| CN[C@@H](C)[C@@H](O)c1ccccc1 | -5% | i | 4% |
| c1ccc(N2CCN(c3nc4ccccc4[nH]3)CC2)nc1 | 1% | 0.1% | 9% |
| CCCCc1c(O)nc(SCC(=O)Nc2ccc3c(c2)CCC3)[nH]c1=O | -12% | 2.1% | 64% |
| CNC(=O)N(c1ccccc1)c1ccccc1 | -1% | 1.5% | -2% |

Molecules listed so far that have sulfur (seven):
| compound | M. tuberculosis HTS | VEEV TC-83 Vero | tuberculosis growth |
| --- | --- | --- | --- |
| Cc1cc(C)nc(/N=C(\N)Nc2ccc(SC(F)F)cc2)n1 | -1% | 7.3% | 14% |
| S=C1NCN(C2CCCCC2)CN1c1ccccc1 | -3% | 3.1% | 27% |
| CN1C(C(=O)Nc2ccccn2)=C(O)c2sccc2S1(=O)=O | 4% | 2.1% | 8% |
| CCSC1=C(C#N)C(=O)n2c1cc1c2CCCC1 | -7% | i | 24% |
| Cc1c(C(=O)Nc2ccncc2)sc2nc(-c3ccc(F)cc3)cn12 | -4% | 8.9% | 17% |
| O=C(Nc1nnc(C2CC2)s1)c1ccccn1 | ? | 4.2% | ? |
| CCCCc1c(O)nc(SCC(=O)Nc2ccc3c(c2)CCC3)[nH]c1=O | -12% | 2.1% | 64% |

Screening results deposited in PubChem BioAssay by Southern Research Specialized Biocontainment Screening Center.

Not all compounds are listed; count on the stated rates, not on these rows.
